Screening results (PubChem)
GLA inh pH 4.5: qHTS Assay for Inhibitors of Human alpha-Galactosidase at pH 4.5. purified enzyme, 4-MU-alpha-Gal fluorescence, pH 4.5. activity change, negative = inhibition, % at 105 µM. 230,000 tested, under 10 active. AID 1467, 2008; inconclusive = small, poorly fitted or top-dose-only inhibition, or a rising curve; inactive = flat fitted curve, though single readings scatter; no compound was filed as active;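 note: 0% = full activity with enzyme and -100% = basal without enzyme; dose as in the result columns while the protocol names 77 µM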
Target sequence (P06280 whole entry, looked up): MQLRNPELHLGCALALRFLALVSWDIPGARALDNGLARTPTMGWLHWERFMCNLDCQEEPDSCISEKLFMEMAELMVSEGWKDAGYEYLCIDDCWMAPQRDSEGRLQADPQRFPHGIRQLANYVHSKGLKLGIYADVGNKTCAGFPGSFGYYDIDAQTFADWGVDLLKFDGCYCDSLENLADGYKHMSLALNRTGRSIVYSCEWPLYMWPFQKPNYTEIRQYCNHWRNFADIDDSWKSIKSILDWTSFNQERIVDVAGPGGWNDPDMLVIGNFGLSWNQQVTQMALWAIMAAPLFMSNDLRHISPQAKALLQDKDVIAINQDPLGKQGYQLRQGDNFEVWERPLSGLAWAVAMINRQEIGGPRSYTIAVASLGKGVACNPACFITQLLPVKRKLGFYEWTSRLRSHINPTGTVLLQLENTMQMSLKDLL
Rango complex inh: qHTS Assay for Inhibitors of Rango (Ran-regulated importin-beta cargo) - Importin beta complex formation; Importin subunit beta-1 (Homo sapiens), Q14974; Rango CFP/YFP FRET sensor + importin beta, 45 min; Potency, µM (titrated, usually from 92.2 µM), for inactives: top-dose inhibition of complex formation; 0.031% of 340,000 active; AID 540263, 2011; active = rising FRET ratio curve, often small or poorly fitted; inconclusive = mostly compound fluorescence or quenching in the first reads; inactive = flat curves in all reads;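 note: potency is the fitted concentration of half-maximal effect; 0% = DMSO wells and 100% = buffer wells lacking importin beta; nearly all actives have a fitted effect of over 15% in size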
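Inhibition scored from the CFP 486 nm/YFP 530 nm FRET ratio 45 min after adding 0.125 microM importin beta to 50 nM Rango biosensor preincubated 5 min with compound (room temperature, PBS with DTT, Tween-20, BSA). No-importin wells as positive control.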
miR-21 reporter: qHTS Assay for Modulators of miRNAs and/orActivators of miR-21; 340,000 tested, under 10 active; Potency, µM (top dose mostly 38.3 µM), without a hit: at the top dose reporter change, positive = more light; AID 2288, 2010; HeLa miR-21 FLuc reporter, luciferase, 48 h; active = well fitted rising curve with a large enough effect; inconclusive = small, poorly fitted or top-dose-only effect; inactive = no such curve, though single readings can be large or run the other way;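 note: % of control where 0% means no effect; miR-21 action dims this reporter so a rising signal means less miR-21 action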
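Luminescence from a firefly luciferase reporter carrying a miR-21 binding site downstream, stably expressed under a CMV promoter in HeLa cells that make miR-21 endogenously, reports miRNA modulation after 48 h compound exposure up to approximately 40uM final.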
Rango release inh: qHTS Assay for Inhibitors of RanGTP induced Rango (Ran-regulated importin-beta cargo) - Importin beta complex dissociation; 0.071% of 340,000 active; Potency, µM (titrated, usually from 46.1 µM), for the others: at the highest dose activity change, negative = inhibition; Snurportin-1 (Homo sapiens) + GTP-binding nuclear protein Ran (Homo sapiens) + Importin …; AID 540253, 2011; Biochemical FRET Rango-importin beta, RanGTP-induced dissociation; active means falling FRET ratio curve, often poorly fitted, with flat reads before Ran was added; inconclusive means other falling curves, or compound fluorescence or quenching; inactive means flat or rising ratio curve;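 note: potency is the fitted concentration of half-maximal effect; % of control where 0% means no effect; nearly all actives have a fitted effect of over 45% in size; -100% = wells without RanGTP and RCC1; the record marks most hits as doubtful in a second field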
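Two FRET readings bracket the reaction: one 5 min after compound meets Rango–importin beta, another 45 min after RanGTP-RCC1 (0.6 uM Ran, 0.2 uM RCC1, 2 mM GTP) is added. Only the second defines inhibition.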
* = called active by the depositor; ? = inconclusive; . = no result given. This is a subset, so the mix of outcomes need not match the whole.

1) CCOc1ccccc1NC(=O)NCc1ccc(F)cc1
2) O=C(Cc1cccs1)NCc1ccccc1
3) Cc1ccc(CN2CCNC(=O)C2CC(=O)N(C)CCc2cnn(C)c2)cc1 (stereo unspecified)
4) Cc1sc2nc3c(C(=O)N4CCCC4)cc(C(=O)c4ccccc4O)cn3c(=O)c2c1C
5) O=C(Cn1cccc1C(=O)c1ccccc1)NCc1ccccc1
6) CCC(=O)Nc1ccc2nc(C)n(CC(=O)Nc3ccccc3)c(=O)c2c1
7) CC(C)NC(=O)c1cnc(Sc2ncc(C(F)(F)F)cc2Cl)n1C
8) O=C(CN1C(=O)c2ccccc2S1(=O)=O)NC1CCCC1
9) COc1ccc(C(=O)COC(=O)c2ccc3c(c2)NC(=O)CS3)c(OC)c1
10) CC(C)CC(NC(=O)CNC(=O)C1O[C@@H]2OC(C)(C)O[C@@H]2[C@H]2OC(C)(C)O[C@@H]12)C(=O)O (stereo partly specified)

Assay by compound	1	2	3	4	5	6	7	8	9	10
GLA inh pH 4.5	0	-9	.	-3	-4	-4	0	-3	.	-16
Rango complex inh	0.1%	-0.4%	1.1%	6.8%	2.1%	-1.2%	0.4%	6.8%	-1.2%	1.8%
miR-21 reporter	-8%	-33%	-3%	6%	-18%	-11%	0%	-3%	.	1%
Rango release inh	-3%	19%	14%	-23%	6%	9%	3%	7%	-19%	-10%

11) O=C(c1ccncc1)N1CCN(S(=O)(=O)c2cc(C(F)(F)F)cc(C(F)(F)F)c2)CC1
12) O=c1cc(NC2CCCCC2)c2ccccc2o1
13) O=C(Nc1ccccc1F)C1CCCN1S(=O)(=O)c1cccc2nsnc12 (stereo unspecified)
14) Cc1ccc(C2NC(=O)c3ccccc3O2)cc1 (stereo unspecified)
15) Cc1[nH][nH]c(=O)c1N=Nc1ccccc1C#N
16) Cn1c(N)c(C(=O)CSc2nc3ccccc3c(=O)n2CCCN2CCOCC2)c(=O)n(C)c1=O
17) COc1ccc(Cl)cc1S(=O)(=O)N1CCCC(C(=O)NCc2ccccn2)C1 (stereo unspecified)
18) CCCC(=O)N(Cc1cc(=O)[nH]c2ccccc12)c1ccc(C)cc1
19) COc1ccc(C(=O)OCC(=O)Nc2cc(S(=O)(=O)N3CCOCC3)ccc2N2CCCC2)cc1
20) Cc1nc(-c2cccc(C(F)(F)F)c2)sc1C(=O)O

Assay by compound	11	12	13	14	15	16	17	18	19	20
GLA inh pH 4.5	.	-1	.	.	-6	3	.	.	6	7
Rango complex inh	-0.6%	-2.0%	2.1%	-1.8%	.	0.4%	-1.9%	-2.2%	-0.4%	-3.5%
miR-21 reporter	.	-3%	-17%	-4%	-44%	-4%	.	-1%	0%	-58%
Rango release inh	4%	0%	-12%	-18%	.	3%	-11%	0%	9%	-7%

21) CC(Sc1nnnn1-c1ccccc1)C(=O)Nc1ccc(N2CCN(C)CC2)cc1 (stereo unspecified)
22) COc1cc2c(C)nc(C)c(C#N)c2cc1OC
23) CCCCc1ccc(NC(=O)Nc2cc(C)nn2C)cc1
24) Cc1ccc(C)c(NC(=O)c2cc(S(=O)(=O)N3CCCCC3)c[nH]2)c1
25) CCc1ccc(C(=O)Nc2cc(S(=O)(=O)N3CCOCC3)ccc2N2CCOCC2)cc1
26) O=C(NCC(c1cccs1)N1CCOCC1)C1CCN(S(=O)(=O)c2cccc(C(F)(F)F)c2)CC1 (stereo unspecified)
27) CCN(CC)c1ccc(NC(=O)CSc2nc3ccccc3c(=O)[nH]2)cc1
28) N#CC1=C(SCC(=O)Nc2nccs2)NC(=O)CC1c1ccccc1 (stereo unspecified)
29) OCCC1CN(Cc2ccccc2-c2ccco2)CCN1Cc1ccccc1 (stereo unspecified)
30) COc1ccc(CCNC(=O)c2cc(S(=O)(=O)N(C)c3ccccc3)ccc2Cl)cc1

Assay by compound	21	22	23	24	25	26	27	28	29	30
GLA inh pH 4.5	.	0	.	.	.	.	0	-1	-6	-6
Rango complex inh	1.8%	-0.8%	0.4%	3.2%	3.0%	-0.3%	-0.6%	-0.5%	1.4%	-0.7%
miR-21 reporter	0%	-11%	12%	3%	.	.	-15%	-6%	-3%	17%
Rango release inh	-11%	-13%	-12%	2%	8%	1%	10%	-3%	2%	5%

Reformatted field by field: entries from further up.
#5 O=C(Cn1cccc1C(=O)c1ccccc1)NCc1ccccc1
  GLA inh pH 4.5: -4
  Rango complex inh: 2.1%
  miR-21 reporter: -18%
  Rango release inh: 6%
#6 CCC(=O)Nc1ccc2nc(C)n(CC(=O)Nc3ccccc3)c(=O)c2c1
  GLA inh pH 4.5: -4
  Rango complex inh: -1.2%
  miR-21 reporter: -11%
  Rango release inh: 9%
#7 CC(C)NC(=O)c1cnc(Sc2ncc(C(F)(F)F)cc2Cl)n1C
  GLA inh pH 4.5: 0
  Rango complex inh: 0.4%
  miR-21 reporter: 0%
  Rango release inh: 3%
#8 O=C(CN1C(=O)c2ccccc2S1(=O)=O)NC1CCCC1
  GLA inh pH 4.5: -3
  Rango complex inh: 6.8%
  miR-21 reporter: -3%
  Rango release inh: 7%

Remaining list, next part.
31) CCN(CC(=O)NCc1ccc(Cl)cc1)C(=O)c1oc2ccccc2c1C
32) O=C1SC(SCc2ccccc2)=N/C1=C\c1ccco1
33) CCOC(=O)CCN(c1ccccc1)S(=O)(=O)c1ccc(-c2ccc(=O)[nH]n2)s1
34) Cc1ccc(NCc2ccccc2O)c(C)c1
35) CCCN(C1CCS(=O)(=O)C1)S(=O)(=O)c1cc(OC)ccc1OC (stereo unspecified)
36) COc1ccc(NC(=O)CSc2nnc3ccc(-c4cccnc4)nn23)c(OC)c1
37) COc1ncc(-c2ccc3c(c2)S(=O)(=O)c2cccc(C(=O)O)c2C3=O)cn1
38) COc1ccccc1C(=O)NC(=S)/C=C1/N(C)c2ccccc2C1(C)C
39) CC(=O)Nc1ccc(S(=O)(=O)Nc2ccc(N3CCOCC3)cc2)cc1
40) COc1ccc(N(C(=O)c2ccc(Br)o2)C2C=CS(=O)(=O)C2)cc1 (stereo unspecified)

Assay by compound	31	32	33	34	35	36	37	38	39	40
GLA inh pH 4.5	.	5	.	1	.	.	.	3	3	2
Rango complex inh	3.2%	?	-0.8%	0.8%	0.5%	-0.9%	-0.2%	-0.1%	?	4.7%
miR-21 reporter	0%	-3%	-7%	-11%	.	.	.	20%	-1%	-15%
Rango release inh	-2%	?	-2%	-9%	-9%	10%	12%	?	-13%	0%

Part of the list above in a different format:
Under each structure – GLA inh pH 4.5	Rango complex inh	miR-21 reporter	Rango release inh
[32] O=C1SC(SCc2ccccc2)=N/C1=C\c1ccco1
 : 5	?	-3%	?
[35] CCCN(C1CCS(=O)(=O)C1)S(=O)(=O)c1cc(OC)ccc1OC (stereo unspecified)
 : .	0.5%	.	-9%

Continued:
41) CN1CCN(C(=O)c2cccc(-c3cc(O)c4ncccc4c3)c2)CC1
42) CCCC1OC(c2cc3c(cc2Cl)OCO3)OCC1CC (stereo unspecified)
43) CCOC(=O)/C(C#N)=C/c1c(N2CCN(Cc3ccc4c(c3)OCO4)CC2)nc2c(C)cccn2c1=O
44) Cc1nn(-c2ccccn2)c(N)c1N=O
45) CCN=C1SC(C(N)=O)CC(=O)N1CC (stereo unspecified)
46) Cc1cc(C)cc(-n2nnnc2SCC(=O)Nc2nc(-c3ccc(F)cc3)cs2)c1
47) COc1ccc(CCN(C)C2CCCN(S(=O)(=O)c3ccccc3F)C2)cc1OC (stereo unspecified)
48) NCC(c1ccc(Cl)cc1Cl)c1c[nH]c2ccccc12 (stereo unspecified)
49) Cc1nnc(SCC(=O)Nc2nccs2)s1
50) COC(=O)CNc1cccc(C(F)(F)F)c1

Assay by compound	41	42	43	44	45	46	47	48	49	50
GLA inh pH 4.5	.	.	-12	-1	-2	15	.	.	3	5
Rango complex inh	-3.3%	5.0%	?	-0.1%	-3.3%	-0.9%	1.7%	1.8%	-0.9%	1.8%
miR-21 reporter	.	.	0%	-4%	-1%	-3%	-4%	?	-9%	-4%
Rango release inh	-21%	-24%	-10%	-1%	-1%	17%	6%	4%	-9%	-1%

51) OC1(c2ccccc2F)CCN(Cc2nnc(-c3ccccc3)o2)CC1
52) NC1=NC(=O)C2(COC(c3ccncc3)OC2)S1 (stereo unspecified)
53) N#CCC(=O)Nn1c(=S)[nH]c2ccccc2c1=O
54) CCOc1cc(/C=C2/C(=N)N3C(=NC2=O)SN=C3S(=O)(=O)CC)ccc1OC(=O)c1ccco1
55) Cc1cccc(Cn2c(-c3ccc[nH]c3=O)nc3ccccc32)c1
56) CC(NC(=O)C1CC1)c1ccc(-c2ccccc2)cc1 (stereo unspecified)
57) Cc1cccc(C(=O)Nc2nccs2)c1[N+](=O)[O-]
58) Cc1ccc2c(Cl)c(C)c(N3CCCC3)nc2n1
59) CCCn1nc(C(=O)OCC(=O)c2ccc3c(c2)NC(=O)CO3)c2ccccc2c1=O
60) Cc1ccc2nc(C3CCN(CC(=O)N4CCCCCC4)CC3)[nH]c2c1

Assay by compound	51	52	53	54	55	56	57	58	59	60
GLA inh pH 4.5	-1	-8	2	.	.	.	3	-6	3	3
Rango complex inh	0.8%	3.1%	-6.6%	?	-0.7%	-1.9%	-2.4%	-0.4%	-1.6%	-7.3%
miR-21 reporter	-22%	0%	2%	2%	-5%	-4%	-5%	-14%	-4%	-10%
Rango release inh	-14%	-12%	4%	?	-2%	-2%	-10%	6%	-8%	1%

61) CN(c1ccccc1)S(=O)(=O)c1ccc(C(=O)OCC(=O)NCc2ccco2)cc1
62) CN(CCc1cnn(C)c1)C(=O)C1CCC(=O)N(CC2CCCCC2)C1 (stereo unspecified)
63) CCOc1ccc(C(C(=O)NCC2CCCO2)N(Cc2cccnc2)C(=O)c2snc(C(N)=O)c2N)cc1 (stereo unspecified)
64) Cc1ccccc1-n1nc(C(=O)O)c(C)c(C#N)c1=O
65) CCOc1cc(N2CCOCC2)c(OCC)cc1NC(=O)C(NC(=O)c1ccco1)C(C)C (stereo unspecified)
66) C=CCn1c(COc2ccc(F)cc2)nnc1SCC(=O)NC1CCCC1
67) CCCN(CCC)c1nc(Cl)nc(NCCN2CCOCC2)n1
68) CN(C)C(=O)c1c2c(nc3ccccc13)-c1ccccc1CC2
69) O=[N+]([O-])c1ccc(/C=N/n2c(-c3cccnc3)n[nH]c2=S)cc1
70) O=C(CN1CCOCC1)Nc1ccccc1Cl

Assay by compound	61	62	63	64	65	66	67	68	69	70
GLA inh pH 4.5	-3	.	.	0	-3	.	-3	-4	-13	13
Rango complex inh	2.9%	-0.1%	-1.2%	-3.3%	0.5%	-1.2%	7.0%	0.4%	?	0.4%
miR-21 reporter	-1%	-1%	4%	-4%	-3%	.	0%	-10%	0%	-7%
Rango release inh	-15%	23%	-12%	-17%	0%	-14%	-1%	-5%	0%	-5%

71) Cc1cccc(NC(=O)c2ccc(S(=O)(=O)N3CC(C)OC(C)C3)cc2)n1 (stereo unspecified)
72) Brc1c(CSc2nc3ccccc3o2)nc2ncccn12
73) CCCCOc1ccc(C(=O)N2CCCC2)cc1
74) O=C(NC(=S)NC1CCCC1)c1ccccc1Br
75) COc1ccc(-n2cnc3cc(NS(=O)(=O)c4ccccc4)ccc32)cc1

Assay by compound	71	72	73	74	75
GLA inh pH 4.5	.	-1	-2	5	-2
Rango complex inh	2.0%	-2.2%	0.0%	-3.3%	-4.2%
miR-21 reporter	.	-75%	-41%	-12%	-34%
Rango release inh	0%	-3%	-18%	-7%	0%
